# HSD17B inhib = qHTS Assay for Inhibitors of HSD17B4, hydroxysteroid (17-beta) dehydrogenase 4. recombinant HSD17B10, NADH fluorescence kinetic; many of its hits are not listed in these tables. Potency, µM (highest dose often 57.1 µM), without a hit: at the top dose activity change, negative = inhibition, hits mostly inhibitors. actives 7.6% (n = 75,000); active means well fitted inhibition curve with a large enough effect; inconclusive means small, poorly fitted or top-dose-only effect; inactive means no such curve, though single readings can be large or run the other way;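 further: the protocol describes HADH2 (HSD17B10) and not the HSD17B4 of the title; nearly all actives have a fitted effect of over 70% in size; most hits overshoot -100% by far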
#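 20 nM HADH2, pH 9.0 Tris/Tween; cpd preinc 15 min RT; start w/ 1 mM NAD+ + 90 uM b-hydroxybutyryl-CoA; kinetic fluor ex360/em450 q30s x 4 min; delta last-first.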
# * hit, by the source's call; ? = inconclusive; [ ] = remark or other dose. On the % scale 0 is the no-effect control and ±100 the full control effect; potency means the concentration at half of the fitted maximal effect. Not all compounds are listed; rates above refer to the full screens.
no.	Compound	HSD17B inhib
1	COc1ccc2nc(C)cc(Nc3ccc(N4CCOCC4)cc3)c2c1	?
2	Cc1cc(=O)[nH]c(SCCOc2cccc(C(F)(F)F)c2)n1	10%
3	COc1cccc2oc(-c3ccccc3)cc(=O)c12	?
4	CN(C)/C=N/c1c(C#N)cnn1-c1nc2ccccc2s1	-1%
5	Cc1nn(C(C)C(=O)N2CCN(c3ccccn3)CC2)c(=O)c2cc3occc3n12 (stereo unspecified)	-3%
6	CCOc1ccc(OCC)c(N=c2oc3c(C)ncc(CO)c3cc2C(N)=O)c1	17%
7	O=C(OCn1cncn1)c1ccc(Cl)cc1Cl	-1%
8	COC(=O)c1ccccc1NC(=O)c1ccccc1N(C)S(C)(=O)=O	13%
9	Cc1cccc2sc(NC(=O)C3CCCO3)nc12 (stereo unspecified)	-6%
10	CCOc1ccccc1CNC(=O)CCN1C(=O)COc2ccccc21	3%
11	CCC(c1nnnn1Cc1ccco1)N1CCN(c2cc(Cl)ccc2C)CC1 (stereo unspecified)	-14%
12	Cc1ccc2nc(NC(=O)CCNS(=O)(=O)c3ccc(Br)s3)sc2c1	-13%
13	Cc1cc(C)n(/N=C/c2ccccc2)c(=O)c1C#N	-5%
14	CC1(C)CC(=O)C(C2(O)C(=O)N(Cc3ccccc3)c3ccccc32)CO1 (stereo unspecified)	10µM*
15	N#Cc1cc(C(=O)c2cc(Cl)ccc2O)cn(CC2CCCO2)c1=O (stereo unspecified)	-10%
16	Cc1ncsc1C(=O)Nc1nc2c(s1)CCCC2	-11%
17	C/C(CCN1CCCc2nc(C)c(C)cc21)=N\O[C@@H](C)CN1CCCc2nc(C)c(C)cc21	-5%[11.4 µM]
18	COc1ccc(CN2CCOCC2)c(C)c1C	4%
19	CCCCn1c(SCC(=O)Nc2nnc(CC)s2)nc2ccccc2c1=O	2%
20	O=S(=O)(c1ccccc1)C1(S(=O)(=O)c2ccccc2)CCCC1	7%
21	CC1(C)Cc2ccccc2-c2n[nH]c(=S)n21	-15%
22	CN(C)S(=O)(=O)c1cccc(CSc2cccc[n+]2[O-])c1	-2%
23	CCOC(=O)C1CCCN(C(=O)C2CCC(CNS(=O)(=O)c3ccc(NC(C)=O)cc3)CC2)C1 (stereo unspecified)	-2%
24	CCOC(=O)c1c(-c2ccccc2)csc1NC(=O)CSc1nnnn1C	-18%
25	Cc1ccc(Cl)cc1NC(=O)CSc1nnc(C)n1-c1ccccc1	-4%
26	CCC(=O)Nc1nc2ccccc2n1Cc1ccccc1	13%
27	COc1ccc(NC(=O)c2cc(-c3ccc(O)cc3)on2)cc1OC	?
28	O=c1[nH]cnc2scc(-c3ccsc3)c12	-6%
29	O=C(O)C1C2CCC(C2)C1C(=O)NCc1ccccn1 (stereo unspecified)	9%
30	Nc1ccc(NC(=O)c2cccs2)c(Cl)c1	6%
31	O=C(CCCc1cccs1)N1CCN(S(=O)(=O)c2ccccc2Br)CC1	0%
32	CCCS(=O)(=O)N1CCCC(C(=O)NCCCN2CCCC2=O)C1 (stereo unspecified)	3%
33	Cc1nc(NCCCn2ccnc2)c2ccccc2n1	3%
34	COc1ccc(S(=O)(=O)N(CC(=O)N2CCN(C)CC2)c2ccc(C)cc2)cc1OC	11%
35	Cc1ncoc1C(=O)Nc1ccc2c(c1)OCCO2	1%
36	CCOC(=O)C1CCN(C(=O)Cc2cccs2)CC1	8%
37	C[C@@H]1C=C[C@](Cc2ccccc2)(C(=O)NCCCNc2ncc(C(F)(F)F)cc2Cl)N1C(=O)c1ccccc1	-9%
38	O=C(Nc1nccs1)c1cc(N2CCOCC2)nc2ccccc12	-13%
39	Cc1c(C(=O)OCC(C)(C)CN(C)C)oc2ccccc12	-12%
40	O=C(CN1CCN(c2ccc(F)cc2)CC1)NCC1CCCO1 (stereo unspecified)	12%
41	COc1ccc(C(N)CCc2ccco2)cc1 (stereo unspecified)	?
42	O=C(CCn1c(=O)oc2ccccc21)n1c(=O)oc2ccccc21	-4%
43	COCCNC(=O)c1ccc(CS(=O)(=O)c2ccccc2)o1	-2%
44	CCOc1ccc(-n2c(Cc3cc(=O)[nH]c(=O)[nH]3)nnc2SC(C)C(=O)OC)cc1 (stereo unspecified)	4%
45	Cc1ccc(S(=O)(=O)C2(C(=O)NC3CCCC3)CC2)cc1	-2%
46	COc1cccc(-c2cncnc2NCc2cccnc2)c1	?
47	CCN1C(=O)[C@H]2[C@H]3[C@H](O)[C@H](O)C/C(=N/OC/C=C(\C)CCC=C(C)C)[C@@H]3CC[C@@H]2C1=O	0%[11.4 µM]
48	O=C(Nc1ccncc1)c1cncc(Br)c1	6%
49	CCCCNc1ncnc2c1cnn2-c1ccc(C)cc1C	3%
50	Brc1ccc(Nc2c3c(nc4ncnn24)CCC3)cc1	-6%

# Reprinted at random: 2 records from the list, in no set order.
no.	Compound	HSD17B inhib
48	O=C(Nc1ccncc1)c1cncc(Br)c1	6%
16	Cc1ncsc1C(=O)Nc1nc2c(s1)CCCC2	-11%

# Next part
no.	Compound	HSD17B inhib
51	COc1ccc(OC)c(-c2cc(C(=O)O)c3cc4ccccc4cc3n2)c1	1%[11.4 µM]
52	CC(C)c1ccc(NC(=O)C2C3C=CC4(CN(CCCN5CCOCC5)C(=O)C24)O3)cc1 (stereo unspecified)	0%
53	Cc1ccc(C)c(N2CCN(C(=O)CCCOc3cc(=O)n(C)c4ccccc34)CC2)c1	1%
54	COc1ccc(Oc2ncc3nc(CCc4ccccc4)c(=O)n(C[C@H]4CCCO4)c3n2)cc1	-14%
55	COC(=O)Cc1nc2ccccc2[nH]1	381%[activator]
56	NC(=O)C1CCN(c2nc(-c3ccccc3)nc3ccccc23)CC1	-7%
57	O=C(NCc1ccccn1)C1CCCN(Cc2cnn(-c3ccccc3)c2-n2cccc2)C1 (stereo unspecified)	0%
58	O=C(O)C1CCCCC1C(=O)NCCc1ccc(Cl)cc1 (stereo unspecified)	193%[activator]
59	O=C(O)CC1NC(=O)N(c2ccc(Cl)cc2)C1=O (stereo unspecified)	2%
60	CCCCNC(=O)COC(=O)c1cc2c(C)nn(-c3ccccc3)c2s1	10µM*
61	O=C(Cn1c(=O)oc2ccccc21)N(Cc1ccccc1)C1CCS(=O)(=O)C1 (stereo unspecified)	1%
62	Cc1occc1-c1nnc(SCC(=O)c2c(N)n(Cc3ccccc3)c(=O)n(C)c2=O)n1C	10%
63	Cc1ccc(OCC2Cn3c(nc4c3c(=O)n(C)c(=O)n4C)O2)cc1 (stereo unspecified)	-1%
64	CCNc1nc2c(c(=O)n(Cc3ccccc3)c(=O)n2C)n1Cc1ccccc1	-5%
65	Nc1nc2c(c(=O)[nH]1)N(C=O)[C@H](CNc1ccc(C(=O)N[C@@H](CCC(=O)O)C(=O)O)cc1)CN2	3%[25.6 µM]
66	CC(=O)c1cc2c(cc1O)OC(C)(C)C=C2	-2%
67	Cc1ccc(-n2ncc3c(NCC4CCCO4)ncnc32)c(C)c1 (stereo unspecified)	-5%
68	CC(=O)SCC[N+](C)(C)C	2%
69	Cc1[nH]c2ccccc2c(=O)c1CN(C)Cc1ccccc1	2%
70	CCc1nc(SCC(=O)N2CCCc3ccccc32)c2c(=O)n(C)c(=O)n(C)c2n1	11%
71	Cc1nnc(Sc2nc3ccccc3o2)c2ccccc12	5%
72	Cc1cccn2c(=O)c3cc(C(=O)N4CCCc5ccccc54)n(C)c3nc12	-24%
73	O=C1NC(=O)c2cc([N+](=O)[O-])ccc21	6%
74	COc1cc(CN/C(C)=C(\C#N)C(N)=O)cc(OC)c1OC	9%
75	COc1ccc(C2/C(=C(/O)c3ccccc3)C(=O)C(=O)N2CC(C)O)c(OC)c1 (stereo unspecified)	-4%
76	CCOC(=O)CN(C(=O)CNC(=O)c1ccco1)C(C(=O)NC1CCCCC1)c1cccc(OC)c1 (stereo unspecified)	1%
77	CNCC(O)c1cccc(O)c1 (stereo unspecified)	8%
78	O=C(CCn1cccc1)NCc1ccc(Cl)cc1	2%
79	O=C(CCS(=O)(=O)c1ccc(Br)s1)NCc1cccs1	2%
80	CCCCN(CCCC)C(=O)CCS(=O)(=O)c1ccc2c(c1)n(C)c(=O)c(=O)n2C	?
81	Cn1cc(C(=O)NC2CCCCC2)c(=O)c2cc(S(=O)(=O)N3CCCC3)ccc21	7%
82	COc1ccccc1NC(=O)C1=C(C)NC(=O)NC1c1ccc(C)cc1 (stereo unspecified)	-4%
83	CC1CC(C)(C)CC2(C1)NC(=O)N(CC(=O)NCC(c1ccco1)N1CCCCC1)C2=O (stereo unspecified)	3%
84	NC(=O)c1cc[n+](CC2=C(C(=O)O)N3C(=O)C(NC(=O)C(c4ccccc4)S(=O)(=O)[O-])C3SC2)cc1 (stereo unspecified)	-11%
85	Cc1ccc(CC2C(=O)N(c3ncccn3)C(=O)C2C)cc1 (stereo unspecified)	-1%
86	Cc1ccc(-c2nnc(SC(C)C#N)n2N)cc1 (stereo unspecified)	13%
87	C[N@+]1(CCC(=O)c2ccccc2)CC[C@H]2CC[C@H](C2)C1	7%[11.4 µM]
88	COc1cc2c(OC)cccc2cc1C(=O)O	25µM*
89	O=c1[nH]ncn2cccc12	3%
90	NC(=O)C1CCN(C(=O)CSCc2ccccc2Cl)CC1	3%
91	COC(=O)[C@@H]1C[C@@]2(O)[C@H](O)[C@H](O)[C@H](O)C[C@H]2N1Cc1ccc(N2CCOCC2)cc1	6%
92	COCCNc1ncncc1-c1ccccc1OC	-9%
93	CS(=O)(=O)N1CCN(C(=O)c2ccccc2F)CC1	4%
94	CC(=O)NCCn1c(SCC#N)nc2ccccc2c1=O	5%
95	COc1ccccc1CNC(=O)CN1CCN(Cc2ccc(Cl)cc2)C1=O	3%
96	COC(=O)/C=c1/s/c(=C(\C#N)C(=O)NCc2ccco2)n(-c2ccc(C)cc2)c1=O	-6%
97	Cc1cnc(CNc2ncncc2-c2ccccc2C#N)cn1	-11%
98	CN1CCN(CCCNC(=O)C2CCN(c3nnc(-n4cccc4)s3)CC2)CC1	-3%
99	CCOc1cc(C)c(C(C)C)cc1S(=O)(=O)N1CCOCC1	4%
100	Cc1cc(C)c(C)c(S(=O)(=O)NCC(=O)N2CCCC2)c1C	4%

# Compounds listed so far that have a CF3 group, in the order listed:
no.	Compound	HSD17B inhib
2	Cc1cc(=O)[nH]c(SCCOc2cccc(C(F)(F)F)c2)n1	10%
37	C[C@@H]1C=C[C@](Cc2ccccc2)(C(=O)NCCCNc2ncc(C(F)(F)F)cc2Cl)N1C(=O)c1ccccc1	-9%

# The list continues.
no.	Compound	HSD17B inhib
101	CC(=O)NC(CCS(C)(=O)=O)C(=O)Nc1ccc(C)c(F)c1 (stereo unspecified)	-1%
102	CCc1ccc(N2CSC3=C(C#N)C(c4cccs4)CC(=O)N3C2)cc1 (stereo unspecified)	25µM*
103	O=C(O)C1C2C=CC(C2)C1C(=O)OC1CC2CCC1C2 (stereo unspecified)	1%
104	COC(=O)CSc1nc2ncc(Cl)cc2[nH]1	7%
105	Cc1ccc(OCC(=O)Nc2ccc(S(=O)(=O)Nc3onc(C)c3C)cc2)cc1	-2%
106	CC(=O)OC[C@@H]1O[C@@H](O/N=C2/C[C@@H](O)[C@@H](O)[C@@H]3[C@@H]4C(=O)N(C[C@@H]5CCCO5)C(=O)[C@H]4CC[C@H]23)[C@H](OC(C)=O)[C@H](OC(C)=O)[C@@H]1OC(C)=O	3%[11.4 µM]
107	Cc1ccc(-c2c3c(=O)n(C)c(=O)n(C)c3cn2N2CCOCC2)cc1	-17%
108	CC1CC(C)CN(CCC(=O)Nc2cccc(Cl)c2)C1 (stereo unspecified)	3%
109	CCn1c(SCC(=O)Nc2cc3oc4ccccc4c3cc2OC)nnc1-c1cccs1	-5%
110	O=C1OCCC1Sc1nc(-c2ccccc2)cs1 (stereo unspecified)	6%
111	Cc1ccc(C(N)=O)cc1S(=O)(=O)Nc1cccc(C)c1C	-11%
112	CCN(C(=O)COC(=O)c1cc(C)n(-c2ccc(F)cc2)c1C)C1CCS(=O)(=O)C1 (stereo unspecified)	5%
113	CCOc1ccc(C(C)=O)cc1N1C(=O)C2C3C=CC(C3=C(C)C)C2C1=O (stereo unspecified)	-7%
114	Cc1cccc(C)c1NC(=O)CNc1ccccc1	7%
115	Cc1ccc(N2CCN(C(=O)C3CCN(S(=O)(=O)c4cccc5nsnc45)CC3)CC2C)cc1 (stereo unspecified)	14%
116	Cc1cc(O)c(C)c(O)c1C(=O)O	6%
117	O=c1ccsn1Cc1ccccc1	32µM*
118	O=C(CSc1nc2ccccc2[nH]1)Nc1ccc2c(c1)OCCO2	-3%
119	S=c1[nH]nc(-c2ccco2)n1-c1cccc2ccccc12	-11%
120	COCCCNC(=O)Cn1nnc(-c2ccccc2NC(=O)c2ccccc2F)n1	-7%
121	COc1ccc(-c2cc(C(F)(F)F)n3nc(C(=O)N4CCOCC4)nc3n2)cc1	?
122	CC1CCN(S(=O)(=O)N2CCC(C(=O)NCc3cccs3)CC2)CC1	1%
123	CCC(CO)NCc1ccc2c(c1)n(C)c(=O)n2C (stereo unspecified)	1%
124	C=CCOc1ccccc1C1C2=C(CC(C)(C)CC2=O)Nc2c1c(=O)n(C)c(=O)n2C (stereo unspecified)	13µM*
125	CCc1nnc(NC(=O)CSc2nc3cccnc3n2C2CCCCC2)s1	3%
126	CC(Sc1nnc(N)s1)c1ccccc1Cl (stereo unspecified)	-22%
127	Cc1ccc(NC(=O)CS(=O)(=O)c2c[nH]c3ccccc23)c(C)c1	9%
128	NCC(=O)Nc1ccccc1	0%[11.4 µM]
129	CCN(CC)CCCN1C(=O)C(O)=C(C(=O)c2ccc(C)o2)C1c1cccs1 (stereo unspecified)	-3%
130	CC(C)NC(=O)N1CC[C@@]2(CCCN(S(C)(=O)=O)C2)C1	10%

# Screening results deposited in PubChem BioAssay by National Center for Advancing Translational Sciences (NCATS).
